Source: PubChem
CSC inhib = blocks cancer stem cells | inhibition, % at 7.5 µM | 1.1% of 300,000 active | cancer stem cell-like cells viability, luminescence;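 active means mean at 75% or more and at least half the replicates too; inconclusive means mean and replicates disagree; tested in HMLE shEcad cells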;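 further: 0% = median of negative and 100% = median of positive control wells; the first replicate is given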
Env fusion inh = HIV envelope-mediated fusion inhibition; HeLa-JRFL Env/CEM21 cell fusion, luciferase; inhibition, % at 12.3 µM; AID 651610; 1.1% of 360,000 active;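 active means mean replicate inhibition score of at least 50 and every replicate individually at or above 50; inconclusive means only one of the two criteria met; inactive means mean below 50 and not all replicates reaching 50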;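 further: 0% = plate neutral controls and 100% = maraviroc near 300 nM; one replicate is shown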
eIF4H FP inh = inhibitors of RNA binding by human eIF4H; Q15056; eIF4H fluorescence polarization binding assay; inhibition, % at 35 µM; 0.94% of 290,000 active; AID 2012;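 active means 50% or more with normal probe brightness, or confirmed in later tests; inconclusive means above 50% with abnormal brightness, or retests that disagree; inactive means below 50% or failed in later tests; about a fifth of its hits are not listed in these tables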;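 further: calls also rest on retests at 20 µM and on dose response follow-up; 0% = protein and probe with vehicle and 100% = probe without protein; strong numbers were not always called active; many hits fall short of the cut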
Rce1 inhib = yeast Ras-converting enzyme inhibition; Q03530; yeast membranes, quenched prenylated peptide cleavage fluorescence; calls only; 0.27% of 290,000 active;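 active means fall in fluorescence gain of 50% or more versus controls, with final raw signal at or below 3038400; inconclusive means same 50% fall but final raw signal above 3038400; inactive means fall in fluorescence gain under 50%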;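 further: plate controls were neutral control wells for no effect and wells lacking membranes for full effect; tested at 10 µM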
Target sequence (Q03530 whole entry, looked up): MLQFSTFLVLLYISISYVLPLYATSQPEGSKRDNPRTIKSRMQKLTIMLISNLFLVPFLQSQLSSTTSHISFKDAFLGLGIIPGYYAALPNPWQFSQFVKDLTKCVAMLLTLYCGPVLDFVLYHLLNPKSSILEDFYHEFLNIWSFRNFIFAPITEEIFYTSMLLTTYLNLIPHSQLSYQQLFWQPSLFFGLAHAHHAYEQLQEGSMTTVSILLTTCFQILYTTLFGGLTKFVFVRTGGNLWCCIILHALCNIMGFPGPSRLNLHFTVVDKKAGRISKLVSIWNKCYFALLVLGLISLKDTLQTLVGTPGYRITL
Yeast UUG start = alters start codon recognition fidelity in yeast | S. cerevisiae UUG-firefly luciferase reporter, luminescence/redox ratio | activity score, % at 18.7 µM | 0.13% of 350,000 active | AID 602363;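 active means replicate mean at a twofold rise or more, about +100% in these data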;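 further: firefly luciferase made from a UUG start codon reports start codon fidelity; reporter light over untreated wells divided by growth signal over untreated wells; some hits fall short of that in this replicate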
PABP polyA inh = blocks human PABP binding to poly(A) RNA; P11940; 1% of 290,000 active; inhibition, % at 35 µM; fluorescence polarization;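 active means 50% or more with normal probe brightness, or confirmed in later tests; inconclusive means above 50% with abnormal brightness, or retests that disagree; inactive means below 50% or failed in later tests; about a fifth of its hits are not listed in these tables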;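 further: calls also rest on retests at 20 µM and on dose response follow-up; controls were probe without protein and protein plus probe with vehicle; some compounds called inactive have numbers as strong as hits; many hits fall short of the cut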
MT1-MMP act inh = inhibitors of human MT1-MMP activation | HT1080 RFP-PRO-GFP cells, GFP/RFP ratio fluorescence, overnight; percent of plate control window, DMSO zero | GFP/RFP ratio change, % at 20 µM | AID 651647 | 0.061% of 360,000 active;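 active means GFP/RFP ratio change of at least 30% with cell ATP level not reduced by more than half and red fluorescence within 50% of control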; further: strong numbers were not always called active
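Assay system: HT1080 RFP-PRO-GFP cells | Dosing: 20 µM single dose, 1% DMSO | Incubation: Cells overnight before dosing, compound overnight, 37 °C, 5% CO2 | Evaluation: GFP/RFP fluorescence ratio | Control set: DMSO-only wells and HT1080 RFP-L50D-GFP cell wells as references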
eIF4H FP inh retest = also measured in eIF4H FP inh; calls as there; inhibition, %; compound at 20 µM; confirmation average;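 mean of two retest wells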
PABP polyA inh retest = second read-out of PABP polyA inh, no call of its own (marks repeat the call); inhibition, %; compound at 20 µM; confirmation repeats;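 mean of two retest wells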
MT1-MMP act inh RFP = also measured in MT1-MMP act inh; calls as there; RFP signal change, %; measured here: RFP expression control read;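 0 = vehicle wells; hits needed this value within 50% of zero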
* = called active by the depositor; i = inactive; u = inconclusive; x = no result given.

The opening four entries, to show the layout:
SMILES | CSC inhib | Env fusion inh | eIF4H FP inh | Rce1 inhib | Yeast UUG start | PABP polyA inh | MT1-MMP act inh | MT1-MMP act inh RFP | others
Cc1ccc(CNC(=O)CCc2nnc(Cc3ccc(-c4ccccc4)cc3)o2)o1 | 0 | 0 | 3 | i | x | 2 | x | x
COc1ccc(-c2nc(SCC(=O)Nc3nccs3)c(-c3ccc(Cl)cc3)[nH]2)cc1 | 64 | -22 | 4 | i | -15 | -1 | -5 | -13
O=C(COC(=O)c1ccc(F)cc1F)NC(=O)Nc1ccc2c(c1)OCCO2 | x | -12 | x | x | -6 | x | -1 | 3
COc1cc(-c2ccc(NC(=O)c3ccc(C)cc3)c(OC)c2)ccc1NC(=O)c1ccc(C)cc1 | x | -19 | -6 | x | x | -2 | 5 | -1

The list itself (from the top)
SMILES | CSC inhib | Env fusion inh | eIF4H FP inh | Rce1 inhib | Yeast UUG start | PABP polyA inh | MT1-MMP act inh | MT1-MMP act inh RFP | others
Cc1ccc(CNC(=O)CCc2nnc(Cc3ccc(-c4ccccc4)cc3)o2)o1 | 0 | 0 | 3 | i | x | 2 | x | x
COc1ccc(-c2nc(SCC(=O)Nc3nccs3)c(-c3ccc(Cl)cc3)[nH]2)cc1 | 64 | -22 | 4 | i | -15 | -1 | -5 | -13
O=C(COC(=O)c1ccc(F)cc1F)NC(=O)Nc1ccc2c(c1)OCCO2 | x | -12 | x | x | -6 | x | -1 | 3
COc1cc(-c2ccc(NC(=O)c3ccc(C)cc3)c(OC)c2)ccc1NC(=O)c1ccc(C)cc1 | x | -19 | -6 | x | x | -2 | 5 | -1
COc1ccc(N2C(=O)C3CCCN3C2c2ccccc2Cl)cc1 (stereo not given) | -4 | -27 | -12 | i | -1 | 0 | 1 | 3
Cn1c(=O)cc(N2CCOCC2)[nH]c1=O | -15 | -78 | -7 | i | -12 | 7 | -3 | 3
O=C(N/N=C/c1ccc(N2CCOCC2)c([N+](=O)[O-])c1)c1ccc(F)cc1 | -14 | -51 | 9 | i | 1 | -12 | 6 | 11
CCCNC(=O)C1CCN(S(=O)(=O)c2ccc3[nH]c(=O)ccc3c2)CC1 | -5 | 26 | 8 | i | -15 | 9 | 0 | 8
C=CCC(CC=C)(C(=O)O)c1ccccc1 | 10 | x | -6 | i | -18 | 7 | 3 | 5
CC1CCN(S(=O)(=O)CCNC(=O)c2ccc3c(c2)OCO3)CC1 | x | -8 | x | i | -15 | x | -1 | 4
O=C(CSCc1ccc(Cl)cc1)Nc1ccc(-c2nnc(-c3ccccc3)o2)cc1 | -8 | -11 | 0 | i | -15 | -2 | -16 | -18
Cc1nc(=O)c(-c2ccccc2)c(C)n1-c1ccccc1 | -12 | -59 | -8 | i | -11 | 2 | x | x
Cc1ccccc1OCC(=O)NCCCNC(=O)c1ccco1 | -1 | -9 | 4 | i | -1 | 4 | 3 | 4
O=C(CCC(=O)Nc1ccc(F)cc1)N/N=C/c1c[nH]c2ccccc12 | -5 | 10 | -13 | i | -16 | -15 | 2 | 0
O=C(NN1CCOCC1)c1ccc(Cl)cc1 | 1 | x | -6 | i | x | 2 | -3 | 0
Cc1cccc(NC(=O)Cc2noc3ccccc23)c1 | -5 | -163 | -10 | i | -17 | 8 | 4 | -2
COc1ccc(C(Nc2cc(C)ccn2)c2ccc3ccc(C)nc3c2O)cc1 (stereo not given) | 25 | 9 | 6 | i | -29 | -5 | 5 | 4
O=C1C2C3C=CC(C4CC34)C2C(=O)N1CCCCN1CCN(c2ccc(F)cc2)CC1 (stereo not given) | 50 | 15 | x | i | 5 | x | -4 | -7
CCOC(=O)c1c(N2C(=O)C3CC(C)=C(C)CC3C2=O)sc(C)c1C (stereo not given) | 20 | -20 | 4 | i | -8 | 1 | 2 | 4
CN(C(=S)NC(=O)c1ccccc1)C1CCCCC1 | -5 | -15 | 5 | i | -9 | -4 | 8 | 5
Cc1occc1C(=O)N1CCCC(Nc2ccc(F)cc2)C1 (stereo not given) | -2 | x | -1 | i | -8 | 8 | 1 | 2
CCC1CCCCN1C(=O)COC(=O)c1n[nH]c2ccccc12 (stereo not given) | -2 | x | -13 | x | -3 | -1 | 3 | 4
O=C(CC1SC(=NC2CCCCC2)NC1=O)Nc1ccccc1 (stereo not given) | -6 | x | -1 | i | 0 | 7 | 1 | 11
Cc1cccc(-n2c(C)cc(/C=C3/C(=N)N4C(c5ccccc5)=CSC4=NC3=O)c2C)c1 | 17 | 5 | 4 | i | x | 2 | -69 | -47
Cc1nc(C)c(-c2ccc(SCc3ccccc3C)nn2)s1 | 22 | -38 | -2 | i | -7 | -2 | 2 | -1
CCOC(=O)CSc1nnc(-c2c[nH]c3ccccc23)o1 | 6 | -5 | 2 | i | -9 | -1 | 6 | 5
Fc1cccc(Cc2c(-c3ccco3)nc3c4ccccc4ccn23)c1 | x | 69* | x | x | -14 | x | -6 | -6
CC(Sc1ccccc1)C(=O)NCCc1ccccc1 (stereo not given) | 2 | -15 | -2 | i | 2 | 2 | 0 | -4
O=C(O)CSc1nnc(-c2ccc(S(=O)(=O)N3CCCC3)cc2)n1Cc1ccco1 | -9 | -32 | 14 | i | -9 | -4 | 8 | 1
COc1ccc2cnnc(SCC(=O)Nc3ccc(C(=O)O)cc3)c2c1OC | -2 | -3 | 12 | i | -5 | 6 | -7 | 3
CCOc1ccc(NC2c3ccccc3C(=O)N2Cc2ccc3c(c2)OCO3)cc1 (stereo not given) | 15 | -12 | 4 | i | -4 | 6 | -3 | -8
C#CCOCCOCCOCCNc1nc(N2CCN(C(=O)Cn3cc(CC(C)O)nn3)CC2)nc(N2CCN(C(=O)[C@H](C)n3cc(CCCN=C(N)N)nn3)CC2)n1 (stereo not given in full) | -5 | x | -2 | i | x | 17 | x | x
COc1cc(OC)c(NC(=O)N2CCOCC2)cc1Cl | -17 | 5 | 1 | i | -19 | 4 | 6 | 1
CC(=Nc1ccc(Br)cc1)c1sc2ccccc2c1O | 28 | -265 | -18 | i | -20 | 1 | -147 | -1
O=C1N=c2ccccc2=C1c1sc(Nc2ccc(O)cc2)nc1O | x | -10 | u | x | x | 32 | 9 | 2
O=C(NCc1ccco1)C1CCCN(S(=O)(=O)c2cccc3nonc23)C1 (stereo not given) | -4 | x | 1 | i | x | 1 | x | x
O=C(c1ccco1)N(CCC(c1ccccc1)c1ccco1)Cc1ccco1 (stereo not given) | -5 | 21 | 68* | i | -19 | 23 | -8 | 0 | eIF4H FP inh retest=64*;PABP polyA inh retest=48
CN(Cc1ccccc1)c1ccc2nnc(-c3ccccc3)n2n1 | -12 | 23 | 0 | i | -6 | 14 | -4 | -5
O=C(c1ccc(NS(=O)(=O)/C=C/c2ccccc2)cc1)N1CCCCC1 | 2 | 8 | x | i | -12 | x | -2 | -10
CCCCCC(=O)NNC1CC(=O)N(c2ccccc2)C1=O (stereo not given) | -7 | -5 | -17 | i | -12 | -2 | 1 | 2
Cn1nnc(C(O)CNCc2ccc(Cl)cc2)n1 (stereo not given) | 9 | 12 | 0 | i | x | -4 | 3 | 2
COCc1ccc(C(=O)N2CCCC(CCC(=O)NCc3ccccc3F)C2)o1 (stereo not given) | 17 | -86 | 3 | i | -6 | -10 | -4 | -10
Cc1ccc(C(=O)NNC(=O)CCC(=O)Nc2cccc(Cl)c2C)cc1 | 2 | -10 | 2 | i | 14 | 7 | 1 | 2
O=C1NCC(COCc2ccco2)O1 (stereo not given) | -6 | x | -5 | i | x | 11 | -7 | 2
Clc1ccc(-c2csc(Nc3ccccc3)[n+]2Cc2ccco2)c(Cl)c1 | x | -9 | -12 | i | x | -2 | -1 | -13
O=C(COc1ccc(N2C(=O)c3ccccc3C2=O)cc1)c1ccccc1 | 5 | 0 | 8 | i | x | -8 | -2 | -3
CCc1ccc(NC(=O)c2noc3c2CCC3)cc1 | -6 | -151 | 83 | x | -71 | 44 | 5 | 0 | eIF4H FP inh retest=7;PABP polyA inh retest=1
O=C(Nc1ccc2c(c1)nc1n2CCOC1)c1ccccc1 | 2 | -7 | -7 | i | -30 | -1 | 3 | -3
Cc1csc2nc(CNS(=O)(=O)N(C)C)cn12 | -6 | -12 | -1 | i | -20 | 0 | 5 | 6
Cc1cc(NC(=O)CSc2nnc(-c3c[nH]c4ccccc34)n2-c2ccc(Cl)cc2)no1 | -6 | x | -10 | i | x | -7 | -6 | -6
(further entries)
SMILES | CSC inhib | Env fusion inh | eIF4H FP inh | Rce1 inhib | Yeast UUG start | PABP polyA inh | MT1-MMP act inh | MT1-MMP act inh RFP | others
Cc1ccc(C)c(N2CCN(C(=O)CCc3nc(-c4ccccc4F)no3)CC2)c1 | x | 23 | x | x | -15 | x | 4 | 1
CCCC(=O)Nc1ccc2c(c1)nc(CN1CCCC1)n2C | -10 | x | -6 | i | -9 | -5 | 2 | 4
O=C(Nc1ccc2c(c1)OCO2)c1cccc(S(=O)(=O)N2CCCC2)c1 | -7 | x | 1 | i | x | -9 | 3 | -4
O=C(CSc1nnc(CCCN2C(=O)c3cccc4cccc(c34)C2=O)n1-c1ccccc1)N1CCCCC1 | -17 | -48 | 5 | i | x | 3 | -1 | -5
O=S(=O)(O)c1ccc2c(c1)C(C(Cl)(Cl)Cl)OC(C(Cl)(Cl)Cl)O2 (stereo not given) | x | 5 | x | x | -9 | x | 1 | 3
O=C(Nc1ccc([N+](=O)[O-])cc1)C(c1ccccc1)c1ccccc1 | x | 15 | x | x | -24 | x | 7 | -3
O=c1[nH][nH]cc1C=NCc1cccc(C(F)(F)F)c1 | 1 | 5 | -1 | i | 0 | 6 | 4 | 8
Cc1cc(C)c(S(=O)(=O)Cc2ccccc2)c(Cl)n1 | -5 | 12 | -6 | i | 1 | 8 | 2 | 5
CCOc1ccc(N(CC(=O)NCc2ccccc2C)S(C)(=O)=O)cc1 | -12 | -8 | -13 | i | -23 | -1 | 1 | 2
CC(=O)NS(=O)(=O)c1ccc(NC(=O)c2cc3c(=O)n4ccccc4nc3s2)cc1 | -11 | 2 | 7 | i | x | 21 | -8 | 2
CN(CC(=O)Nc1c(Cl)cccc1Cl)C(=O)CNC(=O)c1ccco1 | -8 | x | x | x | -18 | x | -1 | 1
COc1cc(NC(=O)CSc2nccc(C)n2)c(C)cc1[N+](=O)[O-] | 0 | 6 | 2 | i | x | -2 | 1 | -1
O=C(Nc1ccc(Cl)cc1)N1CCCC(Cn2cccc2)C1 (stereo not given) | 6 | -6 | -2 | i | -13 | 8 | 0 | 2
CCOC(=O)CNC(=O)C(Cc1ccccc1)NS(=O)(=O)c1ccc2c(c1)CCC(=O)N2 (stereo not given) | -8 | -52 | x | i | 3 | x | 4 | 5
Cc1c(CCC(=O)O)c(=O)oc2cc3occ(-c4ccc(Cl)cc4)c3cc12 | -5 | -11 | 6 | i | -7 | 31 | 0 | 0
Clc1ccc(-c2nnc(CNC3CC3)o2)cc1 | -3 | 1 | -9 | i | x | -2 | 1 | 4
CN(C)CCCNc1oc(-c2ccccc2Cl)nc1S(=O)(=O)c1ccc(F)cc1 | 5 | 6 | 5 | i | -13 | -16 | 0 | -4
O=S(=O)(NCCc1ccccc1)c1ccc(Br)cc1 | 11 | 0 | -11 | i | 13 | -8 | -2 | -2
Nn1c(Cc2cccc3ccccc23)nnc1SCc1c(F)cccc1Cl | -15 | -40 | -2 | i | -17 | 2 | -3 | -2
CC(=O)Nc1ccc2c(c1)CN(c1cc(C)ccc1C)CO2 | 5 | -15 | 4 | i | x | 0 | -4 | -5

The list is partial; rates above refer to the full screens.
